Source: PubChem (several laboratories)
PKD1 kinase inh: blocks activity of human protein kinase D1; Q15139; PKD1 kinase fluorescence polarization assay; inhibition, %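 (about 10 µM by stock and volumes)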; hit rate 0.056% among 200,000;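 active = inhibition of 50% or more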;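 also: controls were vehicle for no effect and a reference inhibitor for full effect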
GALR2 agonist: agonists of human galanin receptor 2 (GALR2); O43603; GALR2-expressing cells, agonist activation read-out; activation, %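 (tested at 5 µM)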; hit rate 0.48% among 140,000; AID 803;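 active = above mean plus 3 SD of all compounds, about 5% in these data, not always enough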;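 also: 0% = vehicle buffer wells and 100% = reference agonist at full effect; tested in CHO reporter cells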
Target sequence (O43603 whole entry, looked up): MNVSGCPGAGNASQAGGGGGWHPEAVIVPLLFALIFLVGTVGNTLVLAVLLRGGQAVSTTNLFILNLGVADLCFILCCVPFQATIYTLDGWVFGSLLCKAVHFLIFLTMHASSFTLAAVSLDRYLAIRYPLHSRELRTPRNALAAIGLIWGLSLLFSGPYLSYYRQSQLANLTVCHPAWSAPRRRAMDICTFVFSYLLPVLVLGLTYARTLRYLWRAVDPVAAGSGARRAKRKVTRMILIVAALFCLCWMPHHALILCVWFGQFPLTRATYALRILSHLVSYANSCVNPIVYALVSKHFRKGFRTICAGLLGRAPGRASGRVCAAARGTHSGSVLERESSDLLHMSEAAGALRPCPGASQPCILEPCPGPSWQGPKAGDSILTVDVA
HSV replic up: increases HSV replication in cells. hit rate 0.005% among 220,000. HSV replication augmentation in cells, fold increase. maximum fold increase;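 active = peak rise of 1.5-fold or more in the series; tested in PC3 cells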;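 also: first round at 10 µM; read as green reporter fluorescence; hits show the peak of a series up to 25 µM; 1 = signal of infected wells without compound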
RGS16-Gao HTS: modulates binding between human RGS16 and Galphao; O15492+P09471; bead-based flow cytometry RGS16-Galphao binding, fluorescence; actives lie on both sides; binding response (% of control), % at 10 µM; hit rate 0.38% among 220,000; AID 1441;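 active = below 25% or above 175%, edge rows of some plates excepted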;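 also: Galphao activated by GDP with aluminum fluoride before binding; 100% = wells without compound and 0% = beads without RGS; some results beyond the cut were filed as inactive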
Target sequence (O15492 whole entry, looked up): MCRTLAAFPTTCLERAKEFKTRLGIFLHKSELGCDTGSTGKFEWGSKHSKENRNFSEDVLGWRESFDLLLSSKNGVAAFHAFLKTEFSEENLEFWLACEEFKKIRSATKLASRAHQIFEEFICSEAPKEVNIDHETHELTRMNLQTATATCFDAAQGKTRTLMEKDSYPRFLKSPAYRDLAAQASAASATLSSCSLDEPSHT
Target sequence (P09471 whole entry, looked up): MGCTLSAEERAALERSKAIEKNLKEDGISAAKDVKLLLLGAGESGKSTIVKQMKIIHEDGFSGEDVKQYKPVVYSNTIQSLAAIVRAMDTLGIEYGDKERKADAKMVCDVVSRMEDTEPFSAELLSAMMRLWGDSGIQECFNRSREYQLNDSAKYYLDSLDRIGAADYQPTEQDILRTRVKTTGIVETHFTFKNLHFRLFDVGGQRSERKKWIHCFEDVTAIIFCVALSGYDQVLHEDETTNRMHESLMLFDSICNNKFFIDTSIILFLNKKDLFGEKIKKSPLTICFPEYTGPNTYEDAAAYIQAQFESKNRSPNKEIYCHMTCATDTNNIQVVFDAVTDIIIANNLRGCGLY
Insulin prom inh: TRM-6 insulin promoter activity inhibition; TRM-6 cells (human fetal islet line), insulin promoter-eGFP reporter, imaging; reporter expression induced with tamoxifen; inhibition, % at 2 µM; hit rate 0.9% among 130,000; AID 1273;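 active = inhibition above the mean plus 3 SD, with well images judged a real hit on visual review, cut at about 60% in these data, passing the limit was not always enough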
Insulin prom inh cell count: also measured in Insulin prom inh; calls as there; normalized cell count, %; measured here: cell count, toxicity; reference of the scale not given here;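 cells exposed to compound for 48 h; stained nuclei by imaging scaled within each plate; lower means fewer cells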
HSV replic up primary fold: recorded beside HSV replic up, whose call it bears; fold increase; compound at 10 µM; measured here: primary screen fold increase 10 uM; tested in PC3 cells;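 GFP signal in the first replicate; 1 = infected wells without compound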
Numbers without * were called inactive; i = inactive; . = not tested or not shown; & = joins results of further samples.

Start of the data: the first 7 compounds, ahead of the listing:
SMILES	PKD1 kinase inh	GALR2 agonist	HSV replic up	HSV replic up primary fold	RGS16-Gao HTS	Insulin prom inh	Insulin prom inh cell count
O=C(c1cc2ccccn2n1)N1CCC2(CC1)OCCO2	-12.1	-0.8	i	1.04	96.3	21.4	141.8
CC1=CC(=C2C(=O)NC(=S)NC2=O)C=C(C(F)(F)F)N1CCc1ccccc1	-5.5	.	i	0.72	107.2	.	.
Cc1cccc(NC2=NCCCS2)c1C	-0.8	-0.7	i	1.04	103.5	-6.2	85.6
CCOC(=O)C1=C(NC(=S)NC(=O)c2ccccc2)c2ccccc2CC12CCCC2	-4.5	-1.3	i	0.83	93.8	23.3	66.1
COC(=O)C(O)(c1ccc(NC(=O)c2cccs2)c(C)c1)C(F)(F)F (stereo not drawn)	.	.	i	1.11	100.9	.	.
O=C(c1ccc2c(c1)ncn2-c1ccc(F)cc1F)N1CCC2(CC1)OCCO2	4.0	.	i	0.82	100.0	-485.7	61.7
CCc1nc2ccccc2c(=O)n1-c1ccc2ccccc2c1	-5.8	-0.4	i	0.91	96.5	-35.7	125.4

The listing, from the start:
SMILES	PKD1 kinase inh	GALR2 agonist	HSV replic up	HSV replic up primary fold	RGS16-Gao HTS	Insulin prom inh	Insulin prom inh cell count
O=C(c1cc2ccccn2n1)N1CCC2(CC1)OCCO2	-12.1	-0.8	i	1.04	96.3	21.4	141.8
CC1=CC(=C2C(=O)NC(=S)NC2=O)C=C(C(F)(F)F)N1CCc1ccccc1	-5.5	.	i	0.72	107.2	.	.
Cc1cccc(NC2=NCCCS2)c1C	-0.8	-0.7	i	1.04	103.5	-6.2	85.6
CCOC(=O)C1=C(NC(=S)NC(=O)c2ccccc2)c2ccccc2CC12CCCC2	-4.5	-1.3	i	0.83	93.8	23.3	66.1
COC(=O)C(O)(c1ccc(NC(=O)c2cccs2)c(C)c1)C(F)(F)F (stereo not drawn)	.	.	i	1.11	100.9	.	.
O=C(c1ccc2c(c1)ncn2-c1ccc(F)cc1F)N1CCC2(CC1)OCCO2	4.0	.	i	0.82	100.0	-485.7	61.7
CCc1nc2ccccc2c(=O)n1-c1ccc2ccccc2c1	-5.8	-0.4	i	0.91	96.5	-35.7	125.4
COc1ccc(N/N=C/c2c(O)n(-c3ccc(C)c(C)c3)c(=O)[nH]c2=O)cc1	0.8	-1.3	i	1.05	103.3	35.7	132.0
CNCCCc1ccccc1	-6.8	-2.7	i	0.91	103.1	31.4	88.0
COC(=O)c1c(C)[nH]c(C(=O)C(Cc2ccccc2)N(C)C)c1C (stereo not drawn)	-11.0	-1.8	i	0.92	102.2	0.0	91.5
O=C(Cc1ccccc1)OCCN1CCOCC1	-4.2	-1.1	i	0.93	105.5	-13.3	96.6
O=C1NC(=O)N(Cc2ccccc2)C(=O)/C1=C/N1CCCc2ccccc21	1.9	-1.0	.	.	115.4	.	.
O=c1c2ccccc2nc(CSc2ncnc3nc[nH]c23)n1-c1ccccc1	-11.4	-1.9	i	0.71	92.4	-9.7	95.8
O=C1/C(=C/c2ccccc2Cl)N2CCC1CC2	.	.	i	0.92	108.2	.	.
CC(C(N)=O)N1CC(c2ccccc2)CC1=O (stereo not drawn)	13.7	-0.5	i	0.93	108.5	18.2	125.0
C#CC[N+]1(C)C2CCC1CC(O)C2 (stereo not drawn)	4.0	.	i	0.97	85.7	.	.
Cc1ccc2c(c1)N(N=O)CCC2	-3.0	-0.8	i	0.93	102.4	20.0	117.7
COc1cc(/C=C/C(=O)c2c(O)n(CCc3ccccc3)c(=O)[nH]c2=O)ccc1O	3.8	-1.3	i	1.14	105.3	51.6	132.1
COc1ccc(C2NCc3ccccc3-n3cccc32)cc1 (stereo not drawn)	-5.5	-3.1	i	0.84	104.3	.	.
O=C(c1ccc(Cl)cc1)C1CCCN(Cc2cccc3cnccc23)C1 (stereo not drawn)	2.1	.	i	1.09	99.2	.	.
Cc1ccsc1C(=O)C1CCCN(Cc2cnc(N3CCOCC3)s2)C1 (stereo not drawn)	-0.7	.	i	1.13	105.1	.	.
C/C(=N\N(C)c1ccccc1)c1c(O)[nH]c(=O)[nH]c1=O	.	.	i	1.07	95.1	.	.
CCn1c(O)c(C=Nc2ccc(N3CCOCC3)cc2)c(=O)n(CC)c1=S	-2.5	-2.0	i	1.08	101.1	5.6	61.7
CCC(=O)OC1(c2cccc(C)c2)CC(C)N(C)CC1C (stereo not drawn)	-5.0	-2.5	i	0.98	108.5	.	.

Continued; it opens with the four that closed the last part.
SMILES	PKD1 kinase inh	GALR2 agonist	HSV replic up	HSV replic up primary fold	RGS16-Gao HTS	Insulin prom inh	Insulin prom inh cell count
Cc1ccsc1C(=O)C1CCCN(Cc2cnc(N3CCOCC3)s2)C1 (stereo not drawn)	-0.7	.	i	1.13	105.1	.	.
C/C(=N\N(C)c1ccccc1)c1c(O)[nH]c(=O)[nH]c1=O	.	.	i	1.07	95.1	.	.
CCn1c(O)c(C=Nc2ccc(N3CCOCC3)cc2)c(=O)n(CC)c1=S	-2.5	-2.0	i	1.08	101.1	5.6	61.7
CCC(=O)OC1(c2cccc(C)c2)CC(C)N(C)CC1C (stereo not drawn)	-5.0	-2.5	i	0.98	108.5	.	.
Nc1cncc(C(=O)O)c1	6.5	.	.	.	99.0&95.6	.	.
COc1ccc(NC(=O)c2c(C)nn(Cc3ccccc3Cl)c2Cl)cc1Cl	-2.9	-0.1	i	1.01	96.5	.	.
c1ccc(P(c2ccccn2)c2ccccn2)cc1	-2.2	.	i	1.06	58.2	.	.
O=C(c1cccn2c(=O)c3cc(Cl)ccc3nc12)N1CCC2(CC1)OCCO2	0.1	0.8	i	1.15	100.6	10.8	85.2
O=C(C1CC(c2ccc(Cl)c(Cl)c2)=NO1)N1CCC2(CC1)OCCO2 (stereo not drawn)	2.0	0.3	i	0.81	99.0	16.3	156.8
Nc1c(C(=O)OC2CCCCC2)c2nc3ccccc3nc2n1CC1CCCO1 (stereo not drawn)	-11.8	2.3	.	.	104.9	-3.2	118.5
COc1cccc(C(=O)N2CCC3(CC2)OCCO3)c1	.	.	i	1.23	90.9	.	.
NC(=O)C1CCN(/C=C2\C(=O)NC(=O)N(Cc3ccco3)C2=O)CC1	.	.	i	0.95	97.0	.	.
COc1cccc(C(=O)C2CCCN(Cc3cccc(C)n3)C2)c1 (stereo not drawn)	-0.8	.	i	1	79.8	14.3	47.9
Nc1c([N+](=O)[O-])cc(F)c(N2CCNCC2)c1Br	-7.5	-2.3	i	0.93	40.5	0.0	78.5
COC(=O)[C@H]1C[C@@H]1[C@H](NP(=O)(c1ccccc1)c1ccccc1)c1ccccc1	-11.7	-1.4	i	1.09	102.9	-77.3	111.2
CCC(C)n1c(O)c(C=NCc2cccnc2)c(=O)[nH]c1=S (stereo not drawn)	.	.	i	1.12	103.0	.	.
O=C1NC(=O)N(Cc2ccccc2)C(=O)/C1=C\c1ccco1	-4.6	.	.	.	84.7	.	.
CP(=O)(O)CN1CCCCC1	4.2	.	i	0.92	106.1	.	.
O=C(c1ccc(N2CC3CC(C2)c2cccc(=O)n2C3)c([N+](=O)[O-])c1)N1CCCCC1 (stereo not drawn)	-11.3	-1.1	i	0.99	112.0	-2.7	146.0
Cn1c(O)c(C=NCCCCCCCCCCC(=O)O)c(=O)n(C)c1=O	.	.	i	0.94	100.8	.	.
CCC1(CCc2ccncc2)C(=O)NC(=O)NC1=O	16.8	-2.5	i	0.933	101.1	39.3	38.2
CC12CCC3C(CC=C4CC5(CCC43C)OCCO5)C1CCC2=O (stereo not drawn)	-10.3	.	i	0.93	110.0	-4.8	113.2
CCOC(=O)c1c(C)n(Cc2ccc3c(c2)OCO3)c2ccc(O)cc12	1.9	-1.6	i	0.9	94.7	46.9	101.9
CSc1nc2ccccc2c(=O)n1-c1cccnc1	.	.	i	0.97	99.2	.	.
Cc1cnn(C2CCN(C)CC2)c1N	0.6	0.4	i	0.93	92.7	-26.3	121.6
Cn1c(O)c(C=NCCN2CCNCC2)c(=O)[nH]c1=O	.	.	i	0.85	95.7	.	.
O=C(CN1CCCC1=O)N1CCOCC1	7.0	-1.7	i	1.09	98.7	44.7	101.4
CCOP(=O)(C(NC(=O)c1ccccc1Cl)=C(Cl)Cl)c1ccccc1 (stereo not drawn)	-1.3	0.7	i	0.98	99.8	.	.
C[C@H](O)[C@H]1CC[C@H]2[C@@H]3CCC4=CC(=O)CC[C@]4(C)[C@H]3CC[C@]12C	-0.3	0.9	i	0.72	112.3	27.3	92.7
CC(=O)OC1N=C(c2ccccc2)c2cc(C)ccc2NC1=O (stereo not drawn)	-7.8	-1.6	i	0.93	105.3	-16.2	118.2
CC(=NCc1ccc2c(c1)OCO2)c1c(O)n(C)c(=O)n(C)c1=O	2.1	-1.3	i	1.01	85.8	20.7	67.3
CN1CCN(c2nccc3c2ncn3C)CC1	-1.8	-0.3	i	1.03	101.7	0.0	99.2
N=C1c2ccccc2CN1NC(=O)C1CC1	13.8	0.3	i	0.91	100.1	-25.0	87.0
CCOP(=O)(OCC)C(NC(=O)CN1C(=O)c2ccccc2S1(=O)=O)C(Cl)(Cl)Cl (stereo not drawn)	-17.2	-1.6	i	1.05	108.1	8.3	97.3
CCOP(=O)(OCC)C(O)c1ccc(Br)cc1 (stereo not drawn)	-13.9	-0.9	i	0.96	95.2	.	.
O=C(COc1ccc(Br)cc1)N1CCN(Cc2c[nH]c3ccccc23)CC1	4.3	0.7	.	.	78.3	-8.7	113.9
CON(C)C(=O)Nc1ccc(Cl)cc1	-16.8	-0.9	i	1.01	92.9	-42.9	81.6
CC(C)OP(=O)(O)NC(=O)c1ccccc1	1.0	.	i	0.95	91.4	47.1	100.8
CCOc1ccc2nc(N=Nc3c(O)[nH]c(=O)[nH]c3=O)sc2c1	.	.	i	0.93	100.8	.	.
C=CCN1CC[C@]23c4c5ccc(O)c4OC2C(=O)CC[C@@]3(O)C1C5 (stereo partly drawn)	.	.	i	0.94	99.0	.	.
CCCCCCC[n+]1ccc(-c2cc[n+](CCCCCCC)cc2)cc1	-6.8	0.2	i	0.61	12.9*	0.0	41.4
CN1C(=O)c2ccccc2NC(=O)C1Cc1ccccc1 (stereo not drawn)	2.4	.	i	1.05	98.7	.	.
CC(=O)N1N=C2C3CCN(CC3)C2C1c1ccc(C)cc1 (stereo not drawn)	-6.7	-2.0	i	0.97	150.1	12.2	99.2
COc1cc(CC2(CCc3ccncc3)C(=O)NC(=O)NC2=O)cc(OC)c1OC	1.7	.	i	1.04	111.5	-13.3	53.1
Cc1cc(Oc2ccc(C(F)(F)F)cc2[N+](=O)[O-])c2c3c(c(=O)oc2c1)CCCC3	-15.6	-0.5	i	1.08	98.7	.	.
O=[N+]([O-])c1ccccc1CNCCc1ccc(F)cc1	-4.5	-2.1	i	1.11	100.0	-10.8	81.7
O=C(CN1CC(c2ccccc2)CC1=O)NCc1ccc(F)cc1 (stereo not drawn)	-0.1	0.7	.	.	77.7	-75.0	119.0
O=C1NC(=S)N(c2ccccc2)C(=O)C1C(c1ccncc1)C1C(=O)NC(=S)N(c2ccccc2)C1=O (stereo not drawn)	3.6	.	i	0.91	119.6	45.5	109.6
Cc1cc(C(=O)CN2CCCC2)c(C)n1-c1ccc(F)cc1	.	.	i	0.93	93.3	.	.
N=C1c2ccccc2CN1c1cccc([N+](=O)[O-])c1	-2.2	.	i	0.92	99.1	42.9	72.9
CC(C)(C)P(=O)(c1ccncc1)N1CCCC1 (stereo not drawn)	-1.2	-1.0	i	0.96	100.8	0.0	155.9
CCOC(=O)C(O)(c1ccc(N)c(OC)c1)C(F)(F)F (stereo not drawn)	5.5	-2.2	.	.	102.5	.	.

Some of the compounds tested; the hit share may differ from the screen's.
